Ecoli growth = E. coli growth inhibition, primary screen, OD600. Escherichia coli growth, 23 h; active compounds read low. OD600 absorbance (test concentration not listed). actives 0.21% (n = 330,000);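 active = OD600 absorbance below the run mean of sample wells minus 3.6 SD, in any replicate, cut at about 0.56 in these data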;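 note: stock transfer was 300 nL into about 60 µL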
rRNA inh HTS = reduced GFP signal of wild-type E. coli, primary screen, bacterial rRNA inhibitor project, GFP/RFP fluorescence, OD600, single point | E. coli WT GFP vs humanized-ribosome RFP mutants, 24 h; active compounds read low; DMSO median 0, no signal -100 | GFP signal change (wild-type ribosome), % (no concentration beside the values) | actives 1.6% (n = 350,000);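 active = significant combined selectivity score with lowered wild-type GFP, culture density cut under 30%, mutant RFP and density less affected; inactive = any of these conditions unmet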; note: one replicate is shown; some compounds called inactive have numbers as strong as hits
HNF4A DNA FP = change in binding of human HNF4A to DNA, primary screen, biochemical, fluorescence polarization, FITC-DNA; Hepatocyte nuclear factor 4-alpha (Homo sapiens), P41235; 1 h; activity change, % at 10 µM; actives 0.3% (n = 360,000); AID 1224865, 2016; in the data active = activity change above about 30%, passing the limit was not always enough;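 note: controls were the assay level and a saturating level of protein; the project sought stronger binding though the title names inhibitors; some compounds called inactive have numbers as strong as hits; positive values seem to mean higher polarization but the record does not say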
Vif A3G = inhibitors of Vif binding to APOBEC3G peptide, primary screen, biochemical, TR-FRET, GST-Vif 1-94, biotin-A3G peptide, dose response retest (AID 1117319); Virion infectivity factor (Human immunodeficiency virus type 1 group M subtype B (isolate …; TR-FRET GST-Vif / biotin-A3G peptide binding; higher % means a stronger effect; test concentration not given here; strong numbers were not always called active; actives 0.57% (n = 260,000); inhibition, %, or IC50 in µM where a hit was titrated;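 active = above the screen mean plus three standard deviations and confirmed in dose response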;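 note: Vif residues 1-94 fused to GST binding biotinylated APOBEC3G peptide 110-148; 0% = full assay without inhibitor and 100% = GST in place of GST-Vif; retest series ran down from 100 µM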
AF4-AF9 inh = inhibitors of AF4 peptide binding to AF9, primary screen, biochemical, AlphaScreen, biotin-AF4 peptide, FLAG-AF9, single point | Protein AF-9 (Homo sapiens), P42568 | inhibition, % at 10 µM | actives 0.47% (n = 350,000);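 active = every replicate reaching a set inhibition limit, whatever the replicate mean, cut at about 25% in these data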;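 note: 0% = plate neutral control median and 100% = total signal loss; the record names both 10 and 1 µM as test concentration; the first replicate is given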
Target sequence (P42568 whole entry, looked up): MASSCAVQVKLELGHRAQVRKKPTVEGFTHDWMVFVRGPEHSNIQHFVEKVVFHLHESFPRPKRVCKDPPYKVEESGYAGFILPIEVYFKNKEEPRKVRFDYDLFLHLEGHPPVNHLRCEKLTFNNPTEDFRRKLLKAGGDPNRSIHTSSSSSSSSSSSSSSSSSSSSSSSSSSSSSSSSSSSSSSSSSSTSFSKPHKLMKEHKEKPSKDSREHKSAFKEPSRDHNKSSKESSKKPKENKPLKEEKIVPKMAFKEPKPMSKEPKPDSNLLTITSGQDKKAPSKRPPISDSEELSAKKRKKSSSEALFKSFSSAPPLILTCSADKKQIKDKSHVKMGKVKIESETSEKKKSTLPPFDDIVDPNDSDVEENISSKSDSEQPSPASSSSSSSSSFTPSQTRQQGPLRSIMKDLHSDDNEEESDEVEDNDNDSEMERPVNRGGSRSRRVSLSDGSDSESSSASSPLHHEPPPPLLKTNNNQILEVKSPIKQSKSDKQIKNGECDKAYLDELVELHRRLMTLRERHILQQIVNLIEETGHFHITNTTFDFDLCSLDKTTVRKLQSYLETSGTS
ALR inh = inhibitors of human ALR sulfhydryl oxidase, primary screen, biochemical, H2O2 detection, HRP-luminol luminescence, single point; FAD-linked sulfhydryl oxidase ALR (Homo sapiens), P55789; purified ALR, DTT oxidation; inhibition, % (concentration not given with the values); actives 3.8% (n = 290,000); AID 485317, 2010;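 active = mean and each replicate at 75% or more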;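 note: stock transfer was 7.5 nL into about 7.5 µL; 0% = neutral wells and 100% = wells with inactivated enzyme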
Target sequence (P55789 whole entry, looked up): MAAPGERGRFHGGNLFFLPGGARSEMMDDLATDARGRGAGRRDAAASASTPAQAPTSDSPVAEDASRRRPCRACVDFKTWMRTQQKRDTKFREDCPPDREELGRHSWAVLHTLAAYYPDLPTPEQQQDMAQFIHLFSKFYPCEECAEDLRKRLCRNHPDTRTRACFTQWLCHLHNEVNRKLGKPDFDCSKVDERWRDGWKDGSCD
FGF22 binding = binders of human FGF22 protein, primary screen, FGF22 synaptogenesis inhibitor project, biophysical, thermal shift, single point; Fibroblast growth factor 22 (Homo sapiens), Q9HCT0; recombinant FGF22 thermal shift, SYPRO orange fluorescence; percent of sucrose octasulfate shift, DMSO zero; calls only at 9.99 µM; actives 1.5% (n = 340,000); AID 651658, 2012;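 active = melting point raised past a set limit in the mean and every replicate; three in four hits are not shown here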
Target sequence (Q9HCT0 whole entry, looked up): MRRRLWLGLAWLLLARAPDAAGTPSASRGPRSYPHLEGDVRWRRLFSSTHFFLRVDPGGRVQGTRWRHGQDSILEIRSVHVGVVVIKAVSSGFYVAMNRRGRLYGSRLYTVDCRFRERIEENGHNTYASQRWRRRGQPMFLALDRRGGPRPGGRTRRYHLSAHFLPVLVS
rRNA inh HTS OD600 = second read-out of rRNA inh HTS, no call of its own (marks repeat the call); OD600 change, %; measured here: OD600 growth;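 optical density of the mix in the first replicate; 0 = DMSO median and -100 = no signal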
rRNA inh HTS RFP = further read-out of rRNA inh HTS, marked with its call; RFP signal change, %; measured here: RFP humanized mutant strains;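 first replicate; 0 = DMSO median and -100 = no signal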
* hit, by the source's call; i = inactive; nt = no result given; & = joins results of further samples.

SMILES	Ecoli growth	rRNA inh HTS	rRNA inh HTS OD600	rRNA inh HTS RFP	HNF4A DNA FP	Vif A3G	AF4-AF9 inh	ALR inh	FGF22 binding
COc1cc(-c2nc(-c3ccc4c(c3)-c3ccccc3S4(=O)=O)c(-c3ccccc3)[nH]2)cc(OC)c1OC	0.74	nt	nt	nt	-2.5	1%	nt	-1	nt
CCN1/C(=C/c2ccc3ccccc3[n+]2CC)C=Cc2ccccc21	nt	nt	nt	nt	44*	-21%	nt	63	nt
Nc1cc(Cl)ccc1Oc1ccc(Cl)cc1	0.65	nt	nt	nt	0.7	14%	nt	28	nt
CN1CCN(c2ccc3sc(-n4ccc5ccccc54)nc3c2)CC1	nt	-61	-76	-21	5.9	-4%	23	nt	i
CCC(=O)NCCCCCCNC(=O)CC	0.68	8	6	4.8	0.7	1%	0.7	-5	i
COc1ccc2nc(NNC(=O)COc3ccccc3)sc2c1	0.69	-3	0	-0.2	3.5	6%	-0.9	-23	i
O=C(C[N+]1(CC#Cc2ccccc2)CCCCC1)c1ccccc1	0.7	-5	6	0.6	-3.9	0%	1.8	-4	i
CC(=O)N(C)C[C@@H]1Oc2ncc(-c3ccc(C#N)cc3)cc2C(=O)N([C@H](C)CO)C[C@@H]1C	nt	6	10	-1.5	nt	nt	-5.4	nt	i
O=C(O)C[C@@H]1C[C@H]2c3cc(NS(=O)(=O)c4ccccc4)ccc3O[C@H]2[C@H](CO)O1	nt	4	8	-3.0	nt	nt	-1.6	nt	i
C=CCN(c1ccccc1)S(=O)(=O)c1cccc(C(=O)Nc2cccc(C)n2)c1	0.63	4	10	-1.2	1.5	-2%	-1.7	2	i
COc1ccccc1C(=O)Nc1ccc(C(=O)/C=C/c2cccs2)cc1	0.72	6	14	0.9	1.4	-13%	5.9	3	i
CC1CN(C(=O)COc2coc(CN3CCc4ccccc4C3)cc2=O)CC(C)O1 (centres undefined)	0.64	1	3	-1.3	1.4	7%	0.7	-4	i
CC1Sc2ccc(S(=O)(=O)N3CCC(C(=O)NCc4ccco4)CC3)cc2NC1=O (centres undefined)	0.7	1	-2	-0.3	3.6	nt	2.7	-11	i
Cc1ccc(NC(=O)Cn2cc(S(=O)(=O)c3ccccc3)c(=O)c3cc(F)ccc32)cc1	0.74	5	2	1.0	-1.0	-70%	-0.6	-11	i
C[C@@H]1CN([C@H](C)CO)C(=O)c2cccc(NC(=O)Nc3cccc4ccccc34)c2O[C@@H]1CN(C)Cc1ccc(Cl)c(Cl)c1	nt	3	-2	0.2	nt	nt	1.6	nt	i
O=C(CS(=O)(=O)c1ccccc1)c1cc2ccccc2oc1=O	0.68	nt	nt	nt	1.2	nt	nt	69	nt
COc1ccccc1NC(=O)N1C[C@H]2[C@@H](c3ccccc31)[C@H](CO)N2Cc1ccc2c(c1)OCO2	nt	-9	-3	3.6	nt	nt	8.2	nt	i
CC=Cc1ccc2n(c1=O)C[C@@H]1[C@@H](CO)[C@H](C(=O)NCC3CC3)[C@H]2N1C(=O)CC (mixture of isomers)	nt	0	1	-2.3	nt	nt	-1.6	nt	i
COc1ccccc1-c1ccc2n(c1=O)C[C@@H]1[C@@H](CO)[C@H](C(=O)N3CCCCC3)[C@H]2N1CC1CC1	nt	1	5	-5.2	nt	nt	0.9	nt	i
CC(=O)N(C)C[C@@H]1OCc2ccccc2-c2ccccc2C(=O)N([C@H](C)CO)C[C@H]1C	nt	1	9	-2.0	nt	nt	-1.9	nt	i
CC1CCN(C(=O)CN(c2ccc3c(c2)OCO3)S(C)(=O)=O)CC1	0.69	5	-1	-0.9	-3.2	0%	-7.1	-10	i
CCCn1cc2c(c1-c1ccc(C)cc1)c(=O)n(C)c(=O)n2C	0.66	nt	nt	nt	2.0	17%	nt	-19	nt
CN1CCN(C(=O)C[C@@H]2CC[C@@H]3[C@H](COC[C@@H](O)CN3CC3CC3)O2)CC1	nt	3	-5	-0.5	nt	nt	-1.8	nt	i
C[C@@H]1CCCCO[C@@H](CN(C)C(=O)Nc2ccc(F)cc2)[C@H](C)CN([C@H](C)CO)C(=O)c2cc(NC(=O)CCCN(C)C)ccc2O1	nt	-2	-3	-0.4	nt	nt	3.2	nt	i
Cc1csc(NC(C)c2nc3cc(C(F)(F)F)ccc3n2CCCO)n1 (centres undefined)	0.78	2	6	-14	-1.3	nt	nt	32	i
Cc1ccc2nc(N3CCN(C)CC3)c(C#N)cc2c1	0.68	nt	nt	nt	-2.5	1%	nt	-4	nt
NC(=O)CC(NC(=O)c1ccccc1)c1ccc(NCc2ccccn2)c([N+](=O)[O-])c1 (centres undefined)	0.7	16	14	-2.2	2.7	nt	nt	-5	i
C[C@@H]1CN([C@@H](C)CO)S(=O)(=O)c2ccc(C#Cc3ccccc3F)cc2O[C@@H]1CN(C)CC1CCOCC1	nt	-1	1	7.1	nt	nt	3.5	nt	i
Cc1cc(C)c(NC(=O)COC(=O)/C=C/c2cccs2)c(C)c1	0.68	nt	nt	nt	4.4	6%	nt	-8	nt
CCOCCn1c(CN2CCN(c3ccccc3)CC2)nc2c1c(=O)n(C)c(=O)n2C	0.78	nt	nt	nt	-0.8	nt	nt	48	nt
O=C1NC(CCc2ccccc2)C(=O)N1Cc1cccc2ccccc12 (centres undefined)	0.71	-21*	-2.7*	3.9*	1.8	nt	-19	nt	i
COc1cc(NC(=S)N2c3ccccc3CC2C)cc(OC)c1 (centres undefined)	0.71	-3	4	-0.4	-0.7	nt	7.0	-27	i
CCC(=O)Nc1ccc(S(=O)(=O)N2CCc3ccccc3C2)cc1	0.77	2	-5	18	0.9	7%	5.7	3	i
CC(C)c1cc(=O)oc2c3c4c(cc12)CCCN4CCC3	0.67	nt	nt	nt	13	14%	-12	-11	nt
C(=Cc1nc2ccccc2o1)c1ccc2c(c1)OCO2	nt	6	-9	-1.4	0.5	-6%	1.8	nt	i
COc1cc(CNc2ccc(S(N)(=O)=O)cc2)ccc1OCC(=O)NC1CCCCC1	0.65	-3	-3	-0.3	-2.1	-24%	-1.1	-1	i
O=c1cc(C(F)(F)F)[nH]c(=O)n1C1CCCCC1	0.66	nt	nt	nt	-5.1	-5%	nt	24	nt
COc1ccc(OC)c(C2C(C(C)=O)=C(O)C(=O)N2CCc2ccc(OC)c(OC)c2)c1 (centres undefined)	0.74	nt	nt	nt	1.6	7%	nt	-8	nt
CCCNC(=O)N1CC2(C1)[C@H](c1ccccc1)[C@H](CO)N2C(=O)CC1CC1	nt	1	13	1.5	nt	nt	-1.8	nt	i
COc1ccc(CNC(=O)CSc2n[nH]c(C)c2[N+](=O)[O-])cc1	0.68	nt	nt	nt	2.8	nt	nt	-1	nt
Cc1ccc(C(=O)Nc2ncccc2C)cc1S(=O)(=O)N1CCCCC1	0.63	0	1	-1.4	0.7	-5%	-7.0	-5	i
Cc1ccccc1C(=O)N1CC(=O)Nc2ccc(F)cc2C1c1ccccc1 (centres undefined)	0.68	5	2	-0.3	2.7	0%	3.7	0	i
CCn1cc(C(=O)NCc2cccnc2)c(=O)c2cc(F)c(N3CCN(C(=O)c4ccco4)CC3)cc21	0.051*	nt	nt	nt	2.0	2%&0%	nt	nt	nt
COc1cccc(CC(NC(C)=O)C(=O)NC2CCN(C(=O)C3CC3)CC2)c1OC (centres undefined)	0.61	5	-1	-3.4	-2.0	-1%	-1.2	-12	i
C[C@@H]1CN([C@H](C)CO)C(=O)c2cc(NS(=O)(=O)c3cccs3)ccc2O[C@@H]1CN(C)S(=O)(=O)c1ccc(F)cc1	nt	-4	-11	2.8	nt	nt	1.8	nt	i
CCOC(=O)CSc1nc2c(c(=O)n(C)c(=O)n2C)n1Cc1ccccc1F	0.73	0	-2	-1.1	0.3	0%	-0.6	-5	i
CCCOc1cccc(C(=O)O)c1	0.71	nt	nt	nt	1.3	29%	nt	0	nt
CC1=C(Sc2ccccn2)C(=O)NC(C)(C)C1	0.69	nt	nt	nt	2.1	1%	nt	-18	nt
C/C(=N\NC(=S)NC1CCCCC1)c1ccc(C#N)cc1	nt	3	9	-1.4	-3.0	7%	3.6	-4	i
COc1ccc(NC(=O)N[C@H]2CC[C@H](CC(=O)NCc3ccccn3)O[C@H]2CO)cc1	nt	5	0	-1.4	nt	nt	-3.3	nt	i
CCOc1ccccc1NC(=S)N(CCCN1CCOCC1)Cc1cn(C)c2ccccc12	0.71	nt	nt	nt	0.8	2%	nt	0	nt
CC(C)CC#Cc1cnc2c(c1)C(=O)N([C@@H](C)CO)C[C@@H](C)[C@@H](CN(C)C(=O)C1CCCCC1)O2	nt	3	-7	3.2	nt	nt	0.1	nt	i
CCOC(=O)c1c(C)[nH]c(C(=O)OCC(=O)N2c3ccccc3CC2C)c1C (centres undefined)	0.72	nt	nt	nt	-0.6	65%	nt	6	nt
O=C(Cc1ccncc1)NCC[C@H]1CC[C@@H](NC(=O)C2CCOCC2)[C@@H](CO)O1	nt	4	4	-1.5	nt	nt	2.7	nt	i
COc1ccccc1N/N=C/c1c(CO)cnc(C)c1O	nt	nt	nt	nt	1.3	30%	nt	100*	nt
c1ccc2c(c1)nc(N1CCCCCC1)c1ccccc12	0.63	-31*	-5.1*	-4.4*	0.3	-4%	nt	nt	i
Cc1ccc(S(=O)(=O)Oc2ccc(/C=N/NC(=O)c3ccncc3)cc2)cc1	nt	-7	-7	0.5	-0.7	-4%	-0.5	-14	i
COc1cccc(-c2ccc3c(c2)O[C@H](CN(C)C(=O)c2ccccc2F)[C@@H](C)CN([C@H](C)CO)S3(=O)=O)c1	nt	-7	-11	1.4	nt	nt	-2.1	nt	i
Cc1[nH]c(C)c(S(=O)(=O)Nc2ccccc2Cl)c1C(=O)N1CCCC1	0.63	11	11	1.9	-3.5	nt	1.8	-4	i
CCN(CC)CCCNc1oc(-c2ccc(OC)c(OC)c2)nc1C#N	0.72	nt	nt	nt	1.5	17%	nt	47	nt

The results go on:
SMILES	Ecoli growth	rRNA inh HTS	rRNA inh HTS OD600	rRNA inh HTS RFP	HNF4A DNA FP	Vif A3G	AF4-AF9 inh	ALR inh	FGF22 binding
CO[C@H]1CN(C)C(=O)c2cc(NC(=O)C3CCCC3)ccc2OC[C@H](C)N(CC2CC2)C[C@@H]1C	nt	1	5	0.1	nt	nt	0.4	nt	i
Cc1c(C)c2ccc(OCC(=O)NCc3ccccn3)cc2oc1=O	0.68	1	10	-1.1	2.5	nt	0.3	-28	i
C[C@@H]1CN([C@H](C)CO)C(=O)c2cc(NS(=O)(=O)c3cccs3)ccc2O[C@H]1CN(C)C	nt	3	-3	2.1	nt	nt	-0.3	nt	i
CCOc1ccccc1N1CC(C(=O)Nc2cc(Cl)ccc2-n2cncn2)CC1=O (centres undefined)	0.66	7	4	0.5	-1.6	10%	0.4	-6	i
CCc1ccc(N2CC(C(=O)OCC(=O)NC3CC3)CC2=O)cc1 (centres undefined)	0.67	6	5	2.3	-0.5	0%	-0.6	0	nt

Source: PubChem BioAssay (several laboratories)

Some of the compounds tested, so the mix of outcomes need not match the whole.
